PINK1 expr mod = A Quantitative High throughput Screen to Identify Chemical Modulators of PINK1 Expression. Potency, µM (titrated, usually from 76.6 µM), for the others: at the highest dose activation (PINK1 increase), most hits filed as activators. PINK1 immunofluorescence, high-content cytometry, 24 h. actives 0.2% (n = 410,000); active = well fitted activation curve with a large enough effect; inconclusive = small, poorly fitted or top-dose-only effect; inactive = flat fitted curve, though single readings scatter; cell line not stated here;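 further: potency means the concentration at half of the fitted maximal effect; % of control where 0% means no effect; nearly all actives have a fitted effect of over 65% in size; a mitochondrial uncoupler was the plate control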
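Fluorescence from anti-PINK1 antibody, together with nuclear and cell stains, was scanned on a laser-scanning cytometer. Before staining, stable-line cells were incubated 24 hours with compounds at 5 concentrations; primary antibody 12 h at 10 degrees C.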
Sfp inh = qHTS Assay for Inhibitors of Bacillus subtilis Sfp phosphopantetheinyl transferase (PPTase). actives 3.5% (n = 310,000). 4'-phosphopantetheinyl transferase ffp (Bacillus subtilis), Q9F4F7. Biochemical Sfp PPTase activity, qHTS. Potency, µM, for inactives: max response, negative = inhibition, hits mostly inhibitors; active means well fitted inhibition curve with a large enough effect; inconclusive means small, poorly fitted or top-dose-only effect, or another doubt; inactive means no such curve, though single readings can be large or run the other way;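 further: the enzyme is Sfp with the accession as filed and its product quenches rhodamine fluorescence; potency means the concentration at half of the fitted maximal effect; 0% = enzyme reaction without inhibitor and -100% = no enzyme wells; top concentration of the series not given in the record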
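After 15 min at room temperature with compound, 15 nM Sfp received 5 uM rhodamine-CoA plus 12.5 uM BHQ-2-ybbR (50 mM Hepes pH 7.6, 10 mM MgCl2). Rate came from the fluorescence difference over 30 min, ex 525/em 598 nm.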
D2 ag = Beta-Arrestin HTS for Positive Allosteric Modulators of the Human D2 Dopamine Receptor: Agonists | actives 0.084% (n = 360,000) | AID 624465, 2012 | DiscoveRx PathHunter D2 beta-arrestin, luminescence, 90 min; 100% = 57 uM dopamine signal | activation, % (concentration not given with the values) | D(2) dopamine receptor (Homo sapiens), P14416; in the data active = activation above about 40%; inconclusive = about 15% to 40%; inactive = below about 15%; further: compound concentration not given in the record; the text of the record calls up to 30% inactive
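DiscoveRx PathHunter D2 beta-arrestin cells (2,100/well) attached overnight, then compound-stimulated 90 min at 37 C in HBSS/10 mM HEPES/0.1% Tween-20 buffer; beta-galactosidase complementation read by luminescence after 1 h at ambient temperature. Dopamine 57 uM final (EC100) as control.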
TRPV1 potentiator = HTS Assay for Compounds that Act as Potentiators of the Vanilloid Receptor 1; Transient receptor potential cation channel subfamily V member 1 (Homo sapiens), Q8NER1; TRPV1-expressing cells, Fluo-8 calcium influx, capsaicin EC20 potentiation; host cell line not named in the record; control for the full effect not named in the record; potentiation, % at 8.33 µM; actives 0.02% (n = 320,000); active means potentiation above 80%; inconclusive means 30% to 80%; inactive means below 30%; further: 0% is about no effect
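TRPV1-expressing cells were cultured overnight at 35.5C and loaded with Fluo-8 calcium dye for 40 to 90 min at room temperature. After a 10 s baseline, compound was added and calcium influx was read kinetically for 3 min (ex 480/em 520 nm).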
Six1-Eya2 blk = qHTS Assay for Inhibitors of the Six1/Eya2 Interaction; AlphaScreen GST-Six1/His-Eya2 binding, biochemical; active compounds read low; control for the full effect not named in the record; activity change, % (no concentration beside the values); actives 0.56% (n = 360,000); in the data active = activity change below about -65%; inconclusive = about -30% to -65%; inactive = above about -30%; further: on the % scale 0 is the no-effect control and ±100 the full control effect
Target sequence (O00167 whole entry, looked up): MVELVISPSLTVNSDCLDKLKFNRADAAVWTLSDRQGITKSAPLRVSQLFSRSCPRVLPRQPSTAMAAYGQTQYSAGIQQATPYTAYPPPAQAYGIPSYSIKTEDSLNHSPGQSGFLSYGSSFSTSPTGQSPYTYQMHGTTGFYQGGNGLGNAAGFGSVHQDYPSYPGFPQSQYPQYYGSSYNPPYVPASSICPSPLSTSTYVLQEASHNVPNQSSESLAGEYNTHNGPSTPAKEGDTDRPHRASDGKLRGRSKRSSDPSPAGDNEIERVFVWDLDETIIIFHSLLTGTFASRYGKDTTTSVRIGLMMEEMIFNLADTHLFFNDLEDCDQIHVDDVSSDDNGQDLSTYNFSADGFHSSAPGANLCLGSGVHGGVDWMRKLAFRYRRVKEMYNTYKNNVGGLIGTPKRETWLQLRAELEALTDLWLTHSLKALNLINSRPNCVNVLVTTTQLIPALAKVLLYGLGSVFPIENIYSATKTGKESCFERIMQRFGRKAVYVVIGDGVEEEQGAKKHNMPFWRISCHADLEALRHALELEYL
Target sequence (Q15475 whole entry, looked up): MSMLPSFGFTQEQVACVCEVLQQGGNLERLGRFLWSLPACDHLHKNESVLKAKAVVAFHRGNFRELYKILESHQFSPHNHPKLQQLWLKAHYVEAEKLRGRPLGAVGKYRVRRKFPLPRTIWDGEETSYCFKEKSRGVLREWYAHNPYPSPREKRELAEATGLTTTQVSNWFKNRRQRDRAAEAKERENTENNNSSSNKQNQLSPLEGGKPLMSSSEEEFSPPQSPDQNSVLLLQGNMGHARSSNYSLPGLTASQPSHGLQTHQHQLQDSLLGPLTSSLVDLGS
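Six1/Eya2 binding was read as AlphaScreen signal after compounds were pinned into GST-Six1 plus His-tagged Eya2 (5X stock 250/500 nM) in pH 8.0 Tris/NaCl/TCEP buffer, beads added, then incubated 1 h, 37 C, dark.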
D2 potentiator = Beta-Arrestin HTS for Positive Allosteric Modulators of the Human D2 Dopamine Receptor: Potentiators; actives 0.23% (n = 360,000); D(2) dopamine receptor (Homo sapiens), P14416; DiscoveRx D2 beta-arrestin cells, luminescence, 90 min; 100% = 57 uM dopamine signal; AID 624464, 2012; potentiation, % (test concentration not listed); active = potentiation of 50% or more; inconclusive = 30% to 50%; inactive = 30% or less;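 further: compound concentration not given in the record; tested on top of an EC20 dose of dopamine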
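PathHunter D2 cells, attached overnight at 37 deg C, received compound in DMSO plus dopamine at EC20 (50 nM final) for 90 min at 37 deg C. Beta-arrestin recruitment was read as luminescence after 1 h with detection reagent at ambient temperature.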
CtBP-E1A blk = qHTS Assay for Inhibitors of the CtBP/E1A Interaction; CtBP / adenovirus E1A interaction (AlphaScreen); AlphaScreen GST-E1A/His-CtBP binding, 1536-well; active compounds read low; control for the full effect not named in the record; activity change, % (no concentration beside the values); actives 0.49% (n = 340,000); in the data active means activity change below about -65%; inconclusive means about -30% to -65%; inactive means above about -30%; further: on the % scale 0 is the no-effect control and ±100 the full control effect
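Steps: dispense buffer (Tris pH 8.0, NaCl 300 mM, TCEP 1 mM, BSA, Tween 20); add 5X protein mix (GST-E1A, His-CtBP, 125 nM each); pin 23 nL compound; 2 h at 37 °C, dark; add 5X beads (50 ug/mL); 1 h; read.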
Starred values were filed as active, the others as inactive; ? = inconclusive; . = no result given; & = joins results of further samples; [ ] = another dose, or the depositor's remark. Random draw from the library; about 3.7% have a hit in one of these screens.

SMILES	PINK1 expr mod	Sfp inh	D2 ag	TRPV1 potentiator	Six1-Eya2 blk	D2 potentiator	CtBP-E1A blk
Cc1ccccc1CSc1nccn1-c1ccccc1	0.6%	-26%	-3.0	6	-22	-22	-16
Cc1ccc(C)c(OCC(=O)O/N=C(\N)c2ccccn2)c1	-0.3%	-1%	3.6	23	-11	4	-1
CCOC(=O)c1cc2sc(C)cc2n1CC(=O)NCCc1ccccc1	8.0%[38.3 µM]	13%	0.5	-19	5	-1	1
O=C(Nc1ccc(C(=O)N2CCC(N3CCCC3)CC2)cc1)c1ccc(Br)o1	-0.7%	.	-0.9	-6	4	-4	3
CCOc1ccccc1Nc1ccc(C(=O)O)cc1N	0.9%	-5%	0.1	-26	-6	3	-2
O=[N+]([O-])c1ccccc1S(=O)(=O)Nc1cccc(S(=O)(=O)N2CCCC2)c1	-0.8%	.	-0.4	.	6	-5	5
CCn1ccc(C(=O)Nc2sc3c(c2C(=O)OC)CCC3)n1	-1.1%	-13%	-3.4	9	16	-11	6
CCS(=O)(=O)N1CCCC(C(=O)NCCCOC(C)C)C1 (stereo not given)	2.5%	9%	3.6	-6	-1	10	7
COc1cc(-c2nn3c(COc4ccccc4)nnc3s2)cc(OC)c1OC	2.5%	56µM*	-1.2	-1	-4	-1	0
Cc1cccc(NC(=O)CCNS(=O)(=O)c2cccc3nonc23)c1	-3.2%&-0.4%	13%	-3.8	-7	11	2	0
COc1cc(CN2CCC(C(=O)N3CCN(c4ccccc4F)CC3)CC2)cc(OC)c1OC	0.1%	-27%	-2.9	-5	-1	-15	-3
O=C(NC1CC2CCCC(C1)N2C(=O)Nc1ccccc1)c1ccncc1 (stereo not given)	3.9%	9%	-6.3	12	3	-1	-1
O=C(Cn1nc(-c2ccccc2Cl)ccc1=O)Nc1ccccc1-c1ccccc1	3.6%	17%	-5.1	-4	24	-19	1
NC(=O)C1CCN(C(=O)c2ccc(-c3ccccc3Cl)o2)CC1	-0.8%	.	0.2	-20	4	-14	0
CCc1csc(CCNC(=O)C2CCC(=O)N(Cc3cccc(C(F)(F)F)c3)C2)n1 (stereo not given)	1.8%	12%	-3.9	8	0	-12	-7
CC(=O)Oc1cccc(N2C(=O)CC(Nc3ccc(N4CCOCC4)cc3)C2=O)c1 (stereo not given)	2.9%	-51%	7.1	5	-27	20	-14
CCOc1ccc(C(=O)NCCCn2ccnc2)cc1	1.4%	9%	-4.7	3	-1	-17	2
Cc1nc2ccc(NC(=O)c3ccc(S(=O)(=O)N(C)C)cc3)cc2s1	0.9%	5%	-2.8	-14	0	-9	-6
CCc1ccccc1NC(=O)c1cc([N+](=O)[O-])ccc1N1CCOCC1	1.2%	3%	1.9	26	3	-10	5
CC(=O)OC(C(=O)NCCc1ccccc1)c1cccnc1 (stereo not given)	-0.2%	8%	1.4	-8	-7	2	-11
Cc1ccc(C(=O)N/N=C/c2ccc(OC(=O)c3ccccc3Cl)cc2)cn1	6.6%	2%	3.5	-9	-8	9	-2
COc1ccccc1NC(=O)c1ccc2nc(N3C(=O)CCC3=O)sc2c1	2.9%	11%	-2.5	-2	0	-5	-3
COc1ccc(CCN(C)C(=O)c2cc(S(=O)(=O)NCc3ccccc3)ccc2C)cc1OC	0.8%	.	1.9	2	9	-68	27
Cc1ccc(/C=C/C(=O)NC(C)c2ccccc2)cc1 (stereo not given)	1.4%	10%	0.0	1	11	-23	3
CNC(=O)C(=O)N/N=C/c1ccccn1	3.6%	79µM*	0.1	4	?	1	?
The list continues.
SMILES	PINK1 expr mod	Sfp inh	D2 ag	TRPV1 potentiator	Six1-Eya2 blk	D2 potentiator	CtBP-E1A blk
COc1cc2nc(C3CC3)n(NC(=O)c3ccc(F)cc3)c(=O)c2cc1OC	1.1%[38.3 µM]	7%	-0.8	5	0	-7	1
CCCCCCN1C[C@@H](O)[C@H](n2cc(COC(=O)c3ccccc3)nn2)C[C@@H]1c1ccccc1	18%	.	-5.5	.	-5	3	1
COC(=O)C1=C(C)OC(N)=C(C#N)C1c1ccc(OC)c(CSc2ccccn2)c1 (stereo not given)	-3.5%	3%	-1.2	-5	2	-4	-5
O=C(NCCOc1cccnc1)C1CCC(=O)N(Cc2ccccc2F)C1 (stereo not given)	-0.5%	19%	-4.1	4	7	-8	-1
Nc1cc(=O)[nH]n1C1CCN(c2ccccc2)CC1	-1.3%	8%	-1.1	?	-2	-16	-4
COc1ccc(/C=N/Nc2nc(-c3ccc(C)cc3)c(C#N)c(=O)[nH]2)cc1	20%	-9%	4.2	3	2	0	0
CC1CCN(C(=O)CCNS(=O)(=O)c2ccc3c(c2)oc(=O)n3C)CC1	1.8%	5%	-5.8	-16	0	-11	0
CCOc1cc(S(=O)(=O)Nc2ccc(Cl)cn2)ccc1F	-2.5%	1%	-0.6	-10	17	3	-1
CCN(c1ccccc1)S(=O)(=O)c1ccc(C(=O)N2CCOCC2)cc1	0.0%	.	-1.9	.	-1	1	5
CCOc1ccccc1C(C(=O)NCCOC)N(CCOC)C(=O)Cn1nnc2ccccc21 (stereo not given)	0.8%	18%	-0.4	4	2	-5	0
COc1ccc(Cl)cc1C(=O)NCCN1CCOCC1	-2.0%	12%	-1.4	4	0	-5	-1
COC(=O)Cn1cnc2c(Cl)nc(F)nc21	2.6%	.	1.2	.	-22	.	-21
C/C(=N/N=C(/N)SCc1ccccc1)C(C)(C)C	0.3%	5%	-0.3	-6	-15	-30	-1
O=S(=O)(c1ccc(NCCOCCO)nc1)N1CCCCC1	1.2%	.	-3.2	-8	10	-1	-2
O=C(c1cc2cc(Br)ccc2o1)N1CCOCC1	4.3%	25%	-2.8	0	1	-5	9
CCCCn1cc(C(C)(C)C)c(C#N)c1NC(C)=O	-1.9%	6%	0.3	-2	-5	-1	3
CC1CCc2c(sc(NC(=O)CSc3nnc(-c4ccccc4)o3)c2C#N)C1 (stereo not given)	9.3%	-7%	2.1	3	-10	-13	-23
CC(=O)c1nccs1	0.1%	.	-5.8	3	1	-5	0
COc1ccc(C(=O)OCC(=O)N2CCCCC2)cc1[N+](=O)[O-]	-1.2%	7%	7.2	2	6	-3	5
COC(=O)C(C)N1C(=O)S/C(=C/c2cc(C)n(C(C)C)c2C)C1=O (stereo not given)	2.4%	-15%	-3.3	-12	-26	13	-23
Cc1ccc(C(=O)CN(C(=O)c2ccc(Cl)cc2)N2C(=O)CCC2=O)cc1	2.5%	15%	-5.2	-5	27	-49	-23
O=C1CC(c2nc3ccccc3[nH]2)CN1c1ccccc1 (stereo not given)	-1.0%	14%	-1.6	-6	5	-8	-6
COC(=O)c1[nH]c(C)c(/C(O)=C2\C(=O)C(=O)N(CCN(C)C)C2c2ccccc2OC)c1C (stereo not given)	1.4%	15%	-3.0	-13	0	-1	-1
Cc1cc(OCC(=O)OCC(=O)c2c(N)n(C)c(=O)n(C)c2=O)ccc1Cl	1.4%	.	-2.8	19	-14	-3	-2
C[C@@H]1CN([C@@H](C)CO)C(=O)CCCn2nncc2CO[C@H]1CN(C)Cc1ccncc1	-1.0%	.	-2.4	.	12	-3	-9

Some of the entries so far, with bars between the fields:
SMILES | PINK1 expr mod | Sfp inh | D2 ag | TRPV1 potentiator | Six1-Eya2 blk | D2 potentiator | CtBP-E1A blk
CCCCn1cc(C(C)(C)C)c(C#N)c1NC(C)=O | -1.9% | 6% | 0.3 | -2 | -5 | -1 | 3
CC1CCc2c(sc(NC(=O)CSc3nnc(-c4ccccc4)o3)c2C#N)C1 (stereo not given) | 9.3% | -7% | 2.1 | 3 | -10 | -13 | -23
CC(=O)c1nccs1 | 0.1% | . | -5.8 | 3 | 1 | -5 | 0
COc1ccc(C(=O)OCC(=O)N2CCCCC2)cc1[N+](=O)[O-] | -1.2% | 7% | 7.2 | 2 | 6 | -3 | 5
COC(=O)C(C)N1C(=O)S/C(=C/c2cc(C)n(C(C)C)c2C)C1=O (stereo not given) | 2.4% | -15% | -3.3 | -12 | -26 | 13 | -23
Cc1ccc(C(=O)CN(C(=O)c2ccc(Cl)cc2)N2C(=O)CCC2=O)cc1 | 2.5% | 15% | -5.2 | -5 | 27 | -49 | -23
O=C1CC(c2nc3ccccc3[nH]2)CN1c1ccccc1 (stereo not given) | -1.0% | 14% | -1.6 | -6 | 5 | -8 | -6
COC(=O)c1[nH]c(C)c(/C(O)=C2\C(=O)C(=O)N(CCN(C)C)C2c2ccccc2OC)c1C (stereo not given) | 1.4% | 15% | -3.0 | -13 | 0 | -1 | -1
Cc1cc(OCC(=O)OCC(=O)c2c(N)n(C)c(=O)n(C)c2=O)ccc1Cl | 1.4% | . | -2.8 | 19 | -14 | -3 | -2
C[C@@H]1CN([C@@H](C)CO)C(=O)CCCn2nncc2CO[C@H]1CN(C)Cc1ccncc1 | -1.0% | . | -2.4 | . | 12 | -3 | -9

Next section
SMILES	PINK1 expr mod	Sfp inh	D2 ag	TRPV1 potentiator	Six1-Eya2 blk	D2 potentiator	CtBP-E1A blk
Cc1ccc(CNc2nc3cc(-c4ccccc4C)sc3c(=O)n2C)c(C)c1	11%	.	7.4	.	-8	0	-7
CC(C)[C@H](CN1CCC[C@H]1CN1C(N)=NC[C@H]1C(C)C)N1C[C@@H](Cc2ccccc2)N(CCCC2CCCC2)C1=N	0.1%	.	-5.3	.	-1	.	-7
Cc1cc(NC(=O)CCC(=O)N(Cc2ccco2)C2(C(=O)NC3CCCC3)CCCCC2)no1	-0.8%	-11%	-9.0	2	-2	-10	5
COc1cc(NC(=O)C2=CC(c3cccs3)=NS(=O)(=O)N2C)cc(OC)c1OC	0.8%	10%	3.1	-18	-15	6	-7
Nc1nn(-c2cccc(F)n2)cc1-c1ccc(Cl)cc1	2.5%	15%	-3.0	4	4	-3	0
O=C(COC(=O)c1cccc(-n2cnnn2)c1)Nc1c(Cl)cccc1C(F)(F)F	0.4%	20%	-7.4	12	10	-22	-11

High-throughput results (PubChem)
